Hsc70 ATP site = small molecules displacing fluorescent ligand from Hsc70 – biochemical, fluorescence polarization, primary screen (AID 568). 83,000 tested, under 10 active. one-dose displacement, % at 20 µM; IC50 in µM for titrated hits. Hsc70 fluorescence polarization, probe displacement; higher % means a stronger effect; strong numbers were not always called active;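 active = displacement above 50% without optical interference and an IC50 on retest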;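 note: ATPase domain with a fluorescein-tagged ATP probe; 0% = vehicle and 100% = excess ADP; read after one hour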
MT1-MMP promoter = inhibitors of MT1-MMP promoter transcription, cell-based, luciferase reporter, luminescence (AID 618). MT1-MMP promoter luciferase reporter cells, luminescence. calls from a first round at 10 µM; hits with a dose series show EC50 in µM. actives 0.62% (n = 87,000);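 active = over half of the reporter light lost at 10 µM or EC50 under 50 µM; inactive = the rest and hits that failed the dose series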;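 note: actives suppress MT1-MMP promoter-driven transcription so potencies describe inhibitors; HT1080 fibrosarcoma cells; overnight exposure; toxic or luciferase-blocking compounds were not removed from the actives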
WNV NS2B-NS3 inh = inhibitors of West Nile virus NS2B-NS3 protease. actives 0.18% (n = 65,000). P06935. WNV NS2B-NS3 protease, fluorogenic substrate Ex360/Em465; active compounds read low. z-score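 (tested at a level between 10 and 100 µM)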;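 active = z-score at -3 or under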;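 note: score is relative to mean and spread of the compound wells of a plate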
Target sequence (P06935 1371-1501 limits assumed): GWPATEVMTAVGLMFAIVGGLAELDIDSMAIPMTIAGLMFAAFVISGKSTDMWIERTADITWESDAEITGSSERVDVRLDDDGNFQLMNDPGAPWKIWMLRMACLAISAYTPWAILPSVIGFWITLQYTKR
Target sequence (P06935 1502-1679 limits assumed): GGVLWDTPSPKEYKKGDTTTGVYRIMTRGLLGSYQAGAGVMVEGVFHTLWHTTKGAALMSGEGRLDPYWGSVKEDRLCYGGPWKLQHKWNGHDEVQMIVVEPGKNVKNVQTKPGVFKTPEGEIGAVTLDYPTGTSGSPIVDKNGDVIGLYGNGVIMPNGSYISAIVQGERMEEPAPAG
An asterisk follows results filed as active; i = inactive; . = no result given.

SMILES	Hsc70 ATP site	MT1-MMP promoter	WNV NS2B-NS3 inh
COc1ccc2sc(NC(=O)CC(C)C)nc2c1	-3.3%	i	-0.17
COC(=O)CCN(c1ccccc1)S(=O)(=O)c1ccc(OC)cc1	-3.5%	i	-0.44
O=C(CCC1CCCCC1=O)c1ccccc1 (stereo unspecified)	3.7%	i	0.42
COc1ccccc1NC(=O)CN1CCN(S(=O)(=O)c2ccc(Br)cc2)CC1	-8.5%	i	-1.08
CC(C)OCCCNC(=O)c1ccc(N(C)S(C)(=O)=O)cc1	-3.6%	i	-0.56
Cc1nc2ccc(C(=O)O)cc2c2c1CC(C)S2 (stereo unspecified)	-1.5%	i	0.58
O=C(CC1=NCCNC(c2ccccc2)C1)c1ccccc1O (stereo unspecified)	-1.9%	i	-0.9
Cn1c(-c2ccc3c(c2)OCO3)cnc1N	-1.6%	i	0.05
Cn1c(C(=O)NCCCN2CCCC2=O)cc2c(=O)n(C)c3ccccc3c21	-4.7%	i	-0.05
Cc1nn(C)c(C)c1CNC(=O)c1cc2n(n1)C(C(F)(F)F)CC(c1cccs1)N2 (stereo unspecified)	6.6%	i	-0.03
O=C1Nc2ccc(S(=O)(=O)NCc3ccccn3)c3cccc1c23	4.1%	i	2.7
COC(=O)Nc1ccc(S(=O)(=O)N2CCCc3ccccc32)cc1	-1.6%	i	1.31

Ordered by SMILES length (smallest number first): three of the compounds above.
SMILES	Hsc70 ATP site	MT1-MMP promoter	WNV NS2B-NS3 inh
O=C(CCC1CCCCC1=O)c1ccccc1 (stereo unspecified)	3.7%	i	0.42
COc1ccc2sc(NC(=O)CC(C)C)nc2c1	-3.3%	i	-0.17
Cn1c(C(=O)NCCCN2CCCC2=O)cc2c(=O)n(C)c3ccccc3c21	-4.7%	i	-0.05

An excerpt of these results, with bars between the fields.
compound | Hsc70 ATP site | MT1-MMP promoter | WNV NS2B-NS3 inh
O=C1Nc2ccc(S(=O)(=O)NCc3ccccn3)c3cccc1c23 | 4.1% | i | 2.7
COC(=O)Nc1ccc(S(=O)(=O)N2CCCc3ccccc32)cc1 | -1.6% | i | 1.31
O=C(CC1=NCCNC(c2ccccc2)C1)c1ccccc1O (stereo unspecified) | -1.9% | i | -0.9
Cn1c(-c2ccc3c(c2)OCO3)cnc1N | -1.6% | i | 0.05
Cn1c(C(=O)NCCCN2CCCC2=O)cc2c(=O)n(C)c3ccccc3c21 | -4.7% | i | -0.05
COc1ccc2sc(NC(=O)CC(C)C)nc2c1 | -3.3% | i | -0.17

More compounds follow:
SMILES	Hsc70 ATP site	MT1-MMP promoter	WNV NS2B-NS3 inh
O=C(NC1CCCCC1)C1CCCN(S(=O)(=O)c2cnc[nH]2)C1 (stereo unspecified)	4.9%	i	0.01
CC(C)CCN1CC(C(=O)NCc2ccccc2)CC1=O (stereo unspecified)	-2.0%	i	0.98
CC1CCN(Cc2ccc(NC(=O)C3CCN(c4nnc(-n5cccc5)s4)CC3)cc2)CC1	-0.4%	i	-0.51
CCOC(=O)c1[nH]c2ccccc2c1NC(=O)NC1CCCCC1	-3.3%	i	.
Cc1cccc(OCCCn2c(=O)sc3ccccc32)c1	-2.2%	i	.
COc1cc(C(=O)OCC(=O)c2cc(C)n(C)c2C)cc(NC(=O)c2ccco2)c1OC	1.8%	i	-0.53
Cc1ccc(C2=N/C(=C/N3CCOCC3)C(=O)O2)cc1	-2.1%	i	-0.84
CCOc1ccc(-c2nc(C#N)c(N3CCN(Cc4ccccc4)CC3)o2)cc1	2.0%	i	-1.01
O=C(Nc1ccc2c(c1)OCCO2)C1CCN(C(=O)c2ccc(Br)cc2)CC1	-1.1%	i	-0.86
Cc1cc(C)c(C)c(OCC(=O)O/N=C(\N)c2ccccn2)c1	6.4%	i	.
Cc1ccc2cc(C#N)c(SCC(=O)NCC3CCCO3)nc2c1C (stereo unspecified)	-2.6%	i	-1.86
CC(=O)Oc1c(S(=O)(=O)c2ccc(C)cc2)c(C)nn1-c1ccccc1	-2.8%	i	-1.15
O=C(CCCN1C(=O)CCC1=O)Nc1ccc2c(c1)OCCO2	-3.4%	i	0.23
O=C(c1cnc2sccn2c1=O)N(Cc1ccccc1)c1ccccn1	2.3%	i	-0.26
COCC(=O)Oc1c(S(=O)(=O)c2ccc(C)cc2)c(C)nn1-c1ccccc1	-3.0%	i	-1.17
COC(=O)CNC(=O)c1cccc(F)c1	2.6%	i	.
CC1Cc2nc(SCC(=O)Nc3ccccc3F)n(C)c(=O)c2S1 (stereo unspecified)	-2.4%	i	0.85
CCOC(=O)c1sc(NC(=O)c2ccc3ncsc3c2)nc1C	6.6%	i	-0.67
O=C(NCCc1ccccc1)c1ccncc1	0.6%	i	0.35
O=C(NCC1CCCO1)C1CC(c2ccc(Cl)c(Cl)c2)=NO1 (stereo unspecified)	5.1%	i	0.45
CC12CN3CC(C)(CN(C1)C3c1ccc(Br)cc1)C2=O (stereo unspecified)	5.0%	i	1.72
COc1ccc2c(c1)CCc1c(C(=O)N3CCc4ccccc4C3)noc1-2	1.4%	i	-0.28
Cc1nnc(SCC(=O)n2c3c(c4ccccc42)CCCC3)s1	-2.3%	i	0.18
CCCNC(=O)c1cc(-c2ccc(Br)cc2)on1	5.5%	i	0.38
CCOc1ccc(-c2nnn(CC(=O)Nc3ccccc3OC)n2)cc1OCC	-5.9%	i	1.04
Cc1nn(-c2ccccc2)c(C)c1/C=N/O	-3.3%	i	-0.89
O=C1CC(=C2c3ccccc3-c3ccccc32)C(=O)N1CCN1CCN(c2cccc(Cl)c2)CC1	-1.2%	i	.
CCOC(=O)/C(C#N)=C\C=C1C=CN(C)C=C1	-198.0%	i	.
Cc1occc1C(=O)NCc1cccs1	1.2%	i	-0.33
CSc1nc(C)cc(OCCNS(=O)(=O)c2ccc(C)cc2)n1	1.2%	i	.
COC(=O)c1ccc(CSc2nnc(-c3c[nH]c4ccccc34)n2C)o1	2.6%	i	-0.84
CN(CC(=O)Nc1nc2ccccc2s1)S(=O)(=O)c1ccccc1	10.5%	i	-0.86
O=c1c2[nH]c3ccccc3c2ncn1Cc1ccco1	-2.2%	i	.
COc1ccccc1OCC(=O)Nc1cccc(-c2nc3ccccc3o2)c1	-2.0%	i	0.93
CCC1=C/C(=C/N(C)c2ccccc2)C(=O)S1	13.5%	i	-0.29
CCOC(=O)c1nn(-c2sc(C(=O)OC)c(C)c2C(=O)OC)cc1O	6.9%	i	0.42
O=C(Cc1cccs1)N(c1ccc(Cl)cc1)C1C=CS(=O)(=O)C1 (stereo unspecified)	-3.5%	i	1.4
Cc1ccc(-c2nc3ncccc3o2)cc1NC(=O)c1ccco1	-4.5%	i	-0.43
Cc1ccc(N2CCN(S(=O)(=O)N(C)C)CC2)c(C)c1	2.1%	i	1.28
Cc1ccccc1NC(=O)CN1CCC(NC(=O)Nc2ccccc2)CC1	-1.2%	i	-0.27
CCN(CC)C(=O)CSc1nnc(-c2ccccn2)n1-c1ccc(C)c(C)c1	-1.7%	i	-0.16
O=C(Nc1cccnc1)c1ccc(COc2ccccc2Br)o1	4.9%	i	-0.1
O=C1COc2ccc(C(=O)COC(=O)C3CCN(S(=O)(=O)c4cccs4)CC3)cc2N1	-2.8%	i	-0.72
CC1=C(c2ccc(Cl)cc2)[N+](=O)C(C)(C)N1[O-]	1.6%	i	-0.35
Clc1ccc(OCc2nn3c(-c4ccncc4)nnc3s2)cc1	-1.6%	i	0.06
CCOc1ccc(-n2c(SCc3nc(-c4ccc(C)cc4)no3)nnc2-c2ccncc2)cc1	-4.2%	i	.
COc1ccc(OC)c(NC(=O)COc2ccc(S(=O)(=O)NC(C)C)cc2)c1	1.0%	i	-0.03
CCCOC(=O)c1ccc(NC(=O)C2CCCO2)cc1 (stereo unspecified)	3.9%	i	1.36
CCOC(=O)c1ccc(-n2[nH]c(-c3ccccc3)cc2=O)cc1	-13.7%	i	-0.72
Cc1cc(C)nc(-n2nc(C)cc2Nc2ccccc2)n1	9.7%	i	0.56
O=C(Oc1ccccc1)N1CCN(c2ccc(F)cc2)CC1	-1.4%	i	-1.08
Clc1ccc(COc2ccccn2)cc1Cl	3.6%	i	.
CC(=O)N(C)c1ccc(NC(=O)C(F)(F)F)cc1	2.2%	i	.
Cc1ccc(NCc2nnc(SCCN3CCCCC3)n2CC2CCCO2)cc1Cl (stereo unspecified)	-3.6%	i	-1.24
COc1ccc2c(CCNC(=O)c3ccco3)c[nH]c2c1	-0.8%	i	0.87
O=C(NC(C(=O)N/N=C/c1cccc2ccccc12)c1n[nH]c(=O)c2ccccc12)c1ccccc1 (stereo unspecified)	-2.2%	i	.
CC(C(=O)Nc1ccc2c(c1)OCCO2)N1CCN(C(=O)c2ccco2)CC1 (stereo unspecified)	-3.7%	i	.
Cc1ccccc1S(=O)(=O)Nc1nc2ccccc2nc1N1CCOCC1	-0.2%	i	-0.72
O=C(Nc1cccnc1)c1ccc2c(c1)OCO2	1.1%	i	-0.07
CSc1cccc(NC(=O)C2CCN(S(C)(=O)=O)CC2)c1	-33.6%	i	1.02

Random excerpt: 4 entries already listed
SMILES	Hsc70 ATP site	MT1-MMP promoter	WNV NS2B-NS3 inh
Cc1cc(C)nc(-n2nc(C)cc2Nc2ccccc2)n1	9.7%	i	0.56
Cc1ccccc1S(=O)(=O)Nc1nc2ccccc2nc1N1CCOCC1	-0.2%	i	-0.72
CC(=O)N(C)c1ccc(NC(=O)C(F)(F)F)cc1	2.2%	i	.
O=C(Nc1cccnc1)c1ccc2c(c1)OCO2	1.1%	i	-0.07

Further compounds follow:
SMILES	Hsc70 ATP site	MT1-MMP promoter	WNV NS2B-NS3 inh
CCOc1ccccc1C(=O)NC(C)c1ccc2c(c1)OCO2 (stereo unspecified)	3.0%	i	0.54
COc1ccc(CNC(=O)c2cnn3c(C(F)F)cc(C)nc23)cc1OC	-3.7%	i	-0.28
COc1cccc(/C=N/n2nnnc2N)c1OCc1ccccc1Cl	1.1%	i	.
Cc1c(C(=O)N2CCOCC2)sc2ncn(CC(=O)N3CCC(C)CC3)c(=O)c12	-1.2%	i	1.25
O=C(CN1C(=O)CSc2ccccc21)Nc1ccc2c(c1)OCCO2	-8.2%	i	0.68
COc1ccc(Cc2nnc(N)s2)cc1	4.1%	i	.
COc1ccc(C2=CC(c3ccc(OC)c(OC)c3)NC(=S)N2)cc1 (stereo unspecified)	-1.8%	i	.
CCOc1cccc(/C(O)=C2/C(=O)C(=O)N(Cc3cccnc3)C2c2ccco2)c1 (stereo unspecified)	2.1%	i	.
Cc1cc(N=Cc2c(O)n(-c3ccc4c(c3)OCO4)c(=O)c3ccccc23)ccn1	-92.6%	i	-0.59
CCOc1c(Br)cc(CNc2ncn[nH]2)cc1OC	2.7%	i	-0.57
CCOC(=O)CSc1nc2sc(C)c(C)c2c(=O)n1C	-0.8%	i	0.79
COc1cc(C2N(c3ccccc3)CCN2c2ccccc2)ccc1OC(C)=O	-4.5%	i	2.73
CCOC(=O)C1=C(CN2CCCCC2)NC(=O)NC1c1cc(C)ccc1C (stereo unspecified)	2.7%	i	.
CCOC(=O)c1nnn(-c2nonc2-n2cccc2)c1CN1CCOCC1	-4.1%	i	.
Nc1cccc(S(=O)(=O)c2cccc(N)c2)c1	-5.5%	i	0.35
CCn1c(O)c(C=Nc2ccccc2)oc1=S	-3.7%	i	-0.49
CC(C)(C)OC(=O)N1CC=C2C(C#N)=C(N)C(C#N)(C#N)C(c3cccs3)C2C1 (stereo unspecified)	6.8%	i	0.3
Cc1ccc(NC(=O)C2(N(CC(C)C)C(=O)Cn3nnnc3N)CCCCC2)cc1	-4.2%	i	0.07
CCOC(=O)c1c(C)[nH]c(C(=O)C(C)Sc2ccc(Cl)cc2)c1C (stereo unspecified)	7.5%	i	.
C=C(C)C1CCC(C)=C1CC(C)(C)/C=N\n1cnnc1 (stereo unspecified)	-2.8%	i	0.55
O=C(CN1CCOCCOCCOCCOCC1)Nc1ccccc1	3.3%	i	.
COC(=O)c1cc2oc(C)cc2n1CC(=O)Nc1cc(C)cc(C)c1	0.5%	i	0.5
O=C(CN1C(=O)c2cccc3cccc1c23)N1CCN(c2ccc(F)cc2)CC1	6.5%	i	-1.04
COc1ccc(Cc2nc(-c3ccc(-n4cccc4)cc3)no2)cc1OC	0.1%	i	0.04
COc1cccc(C(=O)Cn2c(NCCO)nc3ccccc32)c1	-0.4%	i	.
CN1C(=O)CSc2ccc(NC(=O)NCc3cccnc3)cc21	4.9%	i	0.5
CCOCC(=O)Nc1nc(-c2ccccc2)c(CC)s1	4.1%	i	.
COc1ccc(N(CC(=O)NCc2ccco2)S(=O)(=O)c2c(C)nn(C)c2C)cc1	-0.1%	i	-0.38
COCC(=O)Nc1nnc(Cc2ccc(OC)cc2)s1	4.2%	i	.
CN(C)CCCN1C(=O)c2oc3ccccc3c(=O)c2C1c1cccs1 (stereo unspecified)	-0.6%	i	0.57
O=c1c2ccccc2c2ccccc2c(=O)n1Cc1ccco1	4.4%	i	-0.24
O=C(NCCO)C1(c2ccccc2)CCCC1	-0.1%	i	0.72
Cn1c(=O)n(Cc2ccccc2)c(=O)c2c1nc(NCC1CCCO1)n2Cc1ccccc1 (stereo unspecified)	-1.8%	i	-0.06
CC(=O)C1=C(O)C(=O)N(c2nccs2)C1c1ccc(Br)cc1 (stereo unspecified)	-3.1%	i	.
O=C(c1cc2ccccc2o1)c1nc2c(n1O)CCCCC2	13.9%	i	1.51
CCSc1nnc(NC(=O)c2cccnc2Cl)s1	8.5%	i	.
Cc1nnc(SCCCN2C(=O)c3ccccc3C2=O)o1	2.6%	i	0.27
CC1CCC2(CC1)C(Nc1cccc(Cl)c1)=NC(=S)N2CC#N (stereo unspecified)	-4.4%	i	.
CSC1=NCCN1C(=O)Cc1cccs1	-1.3%	i	-1.19

Screens deposited in PubChem by several laboratories.

This is a subset; rates above refer to the full screens.
